High-throughput results from PubChem.
TRPML1 inh: human mucolipin-1 channel inhibition; Q9GZU1; TRPML1-inducible cells, Ca2+ dye fluorescence, FDSS; active compounds read low; inhibition of EC80 agonist-evoked calcium signal; activity change, negative = inhibition, % (test concentration not listed); 0.02% of 390,000 active; in the data active means activity change below about -50%; inconclusive means about -30% to -50%; inactive means above about -30%;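 further: stimulus is agonist 54-4 at its EC80 concentration; on the % scale 0 is the no-effect control and ±100 the full control effect; compound concentration not given in the record; the text of the record puts the active cut at -80%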
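Tet-induced TRPML1-DL cells loaded with Ca8 no-wash calcium dye were read kinetically on FDSS. Compound addition was followed by EC80 agonist 54-4 (4 uM final); inhibition was read over 110 s.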
ClpP mod: qHTS Assay for Activators of ClpP; purified B. subtilis ClpP, FRET peptide cleavage, 20 min; 1.9% of 340,000 active; Potency, µM (series often up to 57.5 µM), for inactives: top-dose activity change, negative = active; AID 651965, 2013; active = well fitted falling curve with a large enough effect; inconclusive = small, poorly fitted or top-dose-only effect; inactive = no such curve, though single readings can be large or run the other way; further: potency means the concentration at half of the fitted maximal effect; the source files actives as falling curves though it sought activators and does not explain the sign; nearly all actives have a fitted effect of over 65% in size; many hits overshoot -100%
Target sequence (P80244 whole entry, looked up): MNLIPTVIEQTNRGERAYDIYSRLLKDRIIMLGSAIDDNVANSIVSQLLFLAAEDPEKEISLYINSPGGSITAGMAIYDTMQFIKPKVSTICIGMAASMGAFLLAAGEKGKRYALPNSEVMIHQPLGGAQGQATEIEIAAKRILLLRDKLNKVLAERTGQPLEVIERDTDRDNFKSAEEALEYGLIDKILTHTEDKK
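Purified B. subtilis ClpP, 10 microg/mL final in Tris/HCl pH8 with KCl, BSA, glycerol and Tween-20, cleaved an Abz/nitrotyrosine-quenched decapeptide. Fluorescence (ex 320, em 430) was read at 0 and 20 min at room temperature. Delta was normalized to 5.8 microM ADEP and DMSO/no-enzyme controls.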
Menin-MLL FL inh: menin-MLL binding inhibition, fluorescein peptide | Fluorescence polarization, fluorescein-MLL peptide displacement from menin | FP activity change, % at 61.4 µM | 290,000 tested, under 10 active | AID 1766; inconclusive = falling polarisation curve, or a change in total fluorescence; inactive = total fluorescence flat and polarisation flat or rising; no compound was filed as active; the % refers to the polarisation; negative = inhibition;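 further: % of control where 0% means no effect; inhibitors lower the polarisation; unlabelled MLL peptide was the positive control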
Sfp inh: blocks B. subtilis Sfp PPTase activity. Biochemical Sfp PPTase activity, qHTS. Potency, µM, for inactives: max response, negative = inhibition, actives largely listed as inhibitors. AID 1490. 3.5% of 310,000 active; active means well fitted inhibition curve with a large enough effect; inconclusive means small, poorly fitted or top-dose-only effect, or another doubt; inactive means no such curve, though single readings can be large or run the other way;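 further: the enzyme is Sfp with the accession as filed and its product quenches rhodamine fluorescence; potency means the concentration at half of the fitted maximal effect; 0% = enzyme reaction without inhibitor and -100% = no enzyme wells; top concentration of the series not given in the record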
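After 15 min at room temperature with compound, 15 nM Sfp received 5 uM rhodamine-CoA plus 12.5 uM BHQ-2-ybbR (50 mM Hepes pH 7.6, 10 mM MgCl2). Rate came from the fluorescence difference over 30 min, ex 525/em 598 nm.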
TRPV1 potentiator: human TRPV1 potentiation; Q8NER1; TRPV1-expressing cells, Fluo-8 calcium influx, capsaicin EC20 potentiation; host cell line not named in the record; control for the full effect not named in the record; potentiation, % at 8.33 µM; 0.02% of 320,000 active; active means potentiation above 80%; inconclusive means 30% to 80%; inactive means below 30%; further: 0% is about no effect
Target sequence (Q8NER1 whole entry, looked up): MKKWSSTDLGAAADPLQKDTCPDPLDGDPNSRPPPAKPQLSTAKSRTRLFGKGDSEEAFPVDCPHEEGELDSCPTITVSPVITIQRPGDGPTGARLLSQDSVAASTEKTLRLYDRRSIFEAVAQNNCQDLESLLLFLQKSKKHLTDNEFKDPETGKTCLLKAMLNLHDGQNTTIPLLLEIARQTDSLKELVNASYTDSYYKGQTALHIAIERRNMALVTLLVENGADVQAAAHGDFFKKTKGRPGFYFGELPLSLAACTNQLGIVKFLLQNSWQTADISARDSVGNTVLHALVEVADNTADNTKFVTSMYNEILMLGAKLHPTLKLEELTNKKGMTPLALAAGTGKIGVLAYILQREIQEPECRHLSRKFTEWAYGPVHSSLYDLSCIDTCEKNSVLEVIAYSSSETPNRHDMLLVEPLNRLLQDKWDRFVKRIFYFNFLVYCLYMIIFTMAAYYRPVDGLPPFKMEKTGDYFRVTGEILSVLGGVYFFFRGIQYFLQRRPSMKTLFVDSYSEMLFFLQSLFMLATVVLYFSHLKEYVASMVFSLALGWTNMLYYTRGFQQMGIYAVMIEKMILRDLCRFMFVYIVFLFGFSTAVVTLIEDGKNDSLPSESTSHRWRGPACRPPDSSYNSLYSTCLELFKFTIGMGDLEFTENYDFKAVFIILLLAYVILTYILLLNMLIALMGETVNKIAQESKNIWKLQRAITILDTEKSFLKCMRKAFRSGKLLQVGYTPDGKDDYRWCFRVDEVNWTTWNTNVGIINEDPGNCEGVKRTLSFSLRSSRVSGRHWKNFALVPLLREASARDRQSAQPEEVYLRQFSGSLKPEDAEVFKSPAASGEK
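TRPV1-expressing cells were cultured overnight at 35.5C and loaded with Fluo-8 calcium dye for 40 to 90 min at room temperature. After a 10 s baseline, compound was added and calcium influx was read kinetically for 3 min (ex 480/em 520 nm).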
gsp agonist: agonists of gsp mutant (McCune-Albright syndrome); AID 624287; Potency, µM (titrated, usually from 76.9 µM), for the others: at the highest dose activation (cAMP increase), usual class: activators; 0.13% of 340,000 active; gsp mutant cells, cAMP HTRF, 30 min; control for the full effect not named in the record; active = well fitted activation curve with a large enough effect; inconclusive = small, poorly fitted or top-dose-only effect, or another doubt; inactive = no such curve, though single readings can be large or run the other way; cell line not stated here;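 further: phosphodiesterase inhibitor Ro 20-1724 added with compounds to block cAMP breakdown; potency means the concentration at half of the fitted maximal effect; nearly all actives have a fitted effect of over 60% in size; about a fifth of the inactives were tested at one dose only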
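Cells in DMEM/10% FBS with G418 were pretreated with compounds in DMSO plus […] (300 uM stock) for 30 min at 37C. cAMP was measured by HTRF (cAMP-d2 plus anti-cAMP antibody-K) after 30 min at room temperature.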
gsp antag: antagonists of gsp mutant (McCune-Albright syndrome). gsp-mutant cells, cAMP HTRF, 30 min; control for the full effect not named in the record. Potency, µM (series often up to 76.9 µM), without a hit: at the highest dose activity change, negative = inhibition, hits mostly inhibitors. 0.4% of 340,000 active. AID 624288; active = falling curve of any shape with a large fitted effect; inconclusive = falling curve, mostly with a smaller effect; inactive = flat or rising curve; cell line not stated here;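 further: intracellular cAMP measured with PDE inhibitor Ro 20-1724 present during compound exposure; potency means the concentration at half of the fitted maximal effect; on the % scale 0 is the no-effect control and ±100 the full control effect; nearly all actives have a fitted effect of over 65% in size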
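HTRF cAMP measurement after 30 min RT detection following 30 min, 37C compound treatment alongside […] (added as 300 uM solution) in G418-selected cells seeded at 2000/well and grown 16–24 h.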
Active calls of the source: *; ? = inconclusive; nt = not tested or not shown; [ ] = dose if it differs, or a comment.

# | SMILES | TRPML1 inh | ClpP mod | Menin-MLL FL inh | Sfp inh | TRPV1 potentiator | gsp agonist | gsp antag
1 | Clc1ccc(CN2C3=NCCN3c3ccccc32)cc1Cl | -3 | -0.4% | -0.5 | 1% | -16 | -12% | 11%
2 | O=C1CCc2cc(S(=O)(=O)NCCC(=O)NC3CCN(Cc4ccccc4)CC3)ccc2N1 | 30 | -2.2% | 1.0 | 15% | 6 | -76%[inhibitor] | 3%
3 | Nc1nc2ccccc2n1CCOc1ccc(Cl)cc1 | 0 | -0.8% | -1.1 | 15% | 1 | -3%[15.4 µM] | 11%
4 | CC1=C(C(=O)OC(C)C)C(c2ccco2)NC(=O)N1 (stereo not drawn) | -2 | -2.2% | 3.9 | -8% | 0 | 20% | 4%
5 | Cc1cccnc1NC(=O)c1ccc(S(=O)(=O)N2CCCC2)cc1 | -5 | -2.5% | nt | nt | nt | -57%[inhibitor] | nt
6 | COc1ccc2[nH]cc(CCNC(=O)Cc3ccc(Br)cc3)c2c1 | 12 | -3.1% | -3.1 | 9% | 0 | 3%[15.4 µM] | -2%
7 | CCN(CC)Cc1oc(CO)cc(=O)c1O | 11 | nt | -5.1 | -11% | 4 | -12%[15.4 µM] | 13%
8 | Cn1c(=O)c2cc(S(=O)(=O)NCCC(=O)N3CC=C(c4ccccc4)CC3)ccc2n(C)c1=O | 2 | -3.4% | 6.3 | 8% | 19 | -6% | ?
9 | COc1cc(NC(=O)c2cc([N+](=O)[O-])ccc2N2CCOCC2)ccc1NC(=O)c1ccco1 | -1 | 1.3% | nt | -12% | 3 | -38%[inhibitor] | -34%
10 | CC(C)C1C(=O)N(Cc2cn(CCC3OCCO3)nn2)CCS(=O)(=O)N1Cc1ccc(-c2ccncc2)cc1 (stereo not drawn) | -20 | -8.9% | nt | nt | nt | 2% | nt
11 | Cc1ccc(CNC(=O)/C=C/c2ccc(S(=O)(=O)NCc3ccco3)cc2)cc1 | 11 | 1.3% | 0.3 | 23% | 8 | 5%[15.4 µM] | 1%
12 | O=C(Nn1c(-c2ccc(Br)cc2)nc2ccccc2c1=O)c1cccnc1 | -6 | nt | -4.4 | 23% | -5 | -5%[15.4 µM] | -8%
13 | COC(=O)Cc1c(O)ccn(Cc2ccccc2OC)c1=O | 12 | -1.1% | 2.2 | 17% | -1 | 1% | -1%
14 | Cc1ccc(S(=O)(=O)NC(C(=O)N2CCOCCOCCOCCOCC2)c2ccccc2)cc1 (stereo not drawn) | -8 | nt | -4.5 | 6% | -8 | 4%[15.4 µM] | 17%
15 | C(=NOCCc1ccccc1)c1cccnc1 | -5 | -0.2% | nt | nt | nt | 0%[15.4 µM] | 7%
16 | O=C(CCCNC(=O)/C(=C/c1ccccc1F)NC(=O)c1ccccc1)OCc1ccccc1 | 6 | nt | 2.3 | -1% | 0 | -3%[15.4 µM] | -12%
17 | COc1ccc(CCn2c(=S)[nH]c3cc(C(=O)NCc4ccco4)ccc3c2=O)cc1OC | 10 | 0.6% | 1.1 | -3% | 28 | ? | -16%
18 | CC(Sc1nnc(-c2cccnc2)o1)C(=O)NC1CCCC1 (stereo not drawn) | -3 | 0.8% | nt | nt | 20 | -24% | 16%
19 | CCC(C(=O)NCc1ccccn1)n1c2ccccc2c2nc(=O)cc(C)n21 (stereo not drawn) | 23 | 3.9% | nt | 6% | 4 | ? | 7%
20 | CCOC(=O)C(Oc1ccc2c(-c3ccccc3)cc(=O)oc2c1)c1ccccc1 (stereo not drawn) | 15 | -20% | 13 | 10% | -10 | -16%[15.4 µM] | -2%
21 | COc1cc(OC)c(C(=O)Oc2ccc3c(c2)OCO3)cc1OC | -1 | -0.2% | -0.8 | -18% | 0 | 12% | 6%
22 | Cc1ccc(S(=O)(=O)Nc2ccccc2N2CCCCC2)cc1 | -3 | 0.3% | nt | nt | nt | 11% | -5%
23 | COc1cccc(OC)c1C(=O)Nc1ccc2c(c1)N(S(=O)(=O)c1cccs1)CCC2 | -23 | 1.0% | 0.0 | 6% | 2 | 21% | -24%
24 | COc1ccc(/C=N/NC(=O)CCc2n[nH]c(=O)[nH]c2=O)cc1OC | -25 | -6.3% | 2.7 | -8% | -1 | 13% | 0%
25 | CC(C)=CC(O)C/C(C)=C/COc1ccc2ccc(=O)oc2c1 (stereo not drawn) | -5 | 4.7% | 8.2 | 4% | 18 | -13% | -2%
26 | COc1ccc2nc(SCC(=O)Nc3cc(OC)c(OC)cc3C(=O)O)c(C)cc2c1 | -1 | -1.9% | -0.6 | 79µM* | 25 | -21%[15.4 µM] | -10%
27 | O=c1cnn(Cc2ccc(Cl)c(Cl)c2)c2ccccc12 | 17 | nt | -0.9 | -6% | 22 | 1%[15.4 µM] | -1%
28 | Cc1ccc(C(=O)NCCCNC(=O)COc2ccc(Cl)cc2)cn1 | 4 | nt | 0.7 | 30%[activator] | 11 | 3%[15.4 µM] | 0%
29 | CC1CCCCC1NC(=O)c1c(O)nc2ccccn2c1=O (stereo not drawn) | 26 | nt | nt | nt | -7 | 5%[15.4 µM] | -3%
30 | NC(=O)CC1(c2ccccc2)CCCCC1 | 16 | 1.3% | nt | nt | nt | -7% | nt
31 | CN1CCN(c2ccccc2NC(=O)c2cc3ccccc3o2)CC1 | 7 | -1.5% | 4.9 | 3% | -12 | -12% | 11%
32 | CSc1nc2ccc(NC(=O)CS(=O)(=O)c3ccccc3)cc2s1 | 0 | -1.9% | nt | nt | nt | 1% | nt
33 | CCc1nnc(NC(=O)CSc2ncc(-c3ccccc3)[nH]2)s1 | 6 | -0.4% | -6.2 | -8% | 20 | 26% | 6%
34 | COc1ccc(C)cc1N(CC(=O)Nc1ccc(S(=O)(=O)N2CCCC2)cc1)S(C)(=O)=O | 26 | -21% | nt | -1% | -11 | -23% | -14%
35 | CCCN1C(=O)c2ccc(C(=O)Nc3ccccc3C(=O)O)cc2C1=O | 31 | nt | -2.1 | 22% | -16 | -6% | ?
36 | COc1ccc(OCCN2CCCC2)cc1Nc1nnc(Cl)c(Nc2ccccc2S(C)(=O)=O)n1 | 7 | -1.4% | nt | nt | nt | nt | -4%
37 | COc1cc(Cn2c(-c3ccc(O)c(OC)c3)nc3ccccc32)ccc1O | -2 | nt | 2.5 | 6% | -4 | 23% | -10%
38 | O=C(Nc1cccnc1)C1CCCN1S(=O)(=O)c1ccc(Cl)c(Cl)c1 (stereo not drawn) | -2 | -1.0% | 3.8 | 13% | 1 | -23% | 1%
39 | CCCc1nnc(NC(=O)C(=O)NCCN(CC)CC)s1 | -8 | -5.2% | -0.1 | -29% | 22 | -23% | 0%
40 | CC(=O)N(C)C[C@H]1Oc2cc(Br)ccc2S(=O)(=O)N([C@H](C)CO)C[C@@H]1C | 1 | 0.4% | nt | nt | nt | -11% | nt
41 | O=C(COC(=O)c1cnccn1)Nc1ccc2c(c1)OCO2 | -11 | -1.8% | 0.9 | 9% | nt | 11% | 1%
42 | COc1cccc(NC(=O)COC(=O)CC2CC3CCC2C3)c1 (stereo not drawn) | 2 | -3.3% | nt | nt | nt | -20% | 10%
43 | CCN(CC)S(=O)(=O)c1ccc(OC)c(NC(=O)c2cccc(C)c2[N+](=O)[O-])c1 | 12 | -0.9% | 2.4 | 15% | 2 | 1% | 3%
44 | CCC1(C)OC(=O)N(CCCn2ccnc2C)C1(C)O (stereo not drawn) | -6 | 1.7% | -1.1 | 22% | -1 | -28% | 18%
45 | CCNC(=O)C(Cc1ccccc1)NC(=O)OCc1ccccc1 (stereo not drawn) | -1 | nt | -4.1 | 23% | -3 | 19% | 1%

Entries shown so far that contain a halogen, in the order listed:
# | SMILES | TRPML1 inh | ClpP mod | Menin-MLL FL inh | Sfp inh | TRPV1 potentiator | gsp agonist | gsp antag
1 | Clc1ccc(CN2C3=NCCN3c3ccccc32)cc1Cl | -3 | -0.4% | -0.5 | 1% | -16 | -12% | 11%
3 | Nc1nc2ccccc2n1CCOc1ccc(Cl)cc1 | 0 | -0.8% | -1.1 | 15% | 1 | -3%[15.4 µM] | 11%
6 | COc1ccc2[nH]cc(CCNC(=O)Cc3ccc(Br)cc3)c2c1 | 12 | -3.1% | -3.1 | 9% | 0 | 3%[15.4 µM] | -2%
12 | O=C(Nn1c(-c2ccc(Br)cc2)nc2ccccc2c1=O)c1cccnc1 | -6 | nt | -4.4 | 23% | -5 | -5%[15.4 µM] | -8%
16 | O=C(CCCNC(=O)/C(=C/c1ccccc1F)NC(=O)c1ccccc1)OCc1ccccc1 | 6 | nt | 2.3 | -1% | 0 | -3%[15.4 µM] | -12%
27 | O=c1cnn(Cc2ccc(Cl)c(Cl)c2)c2ccccc12 | 17 | nt | -0.9 | -6% | 22 | 1%[15.4 µM] | -1%
28 | Cc1ccc(C(=O)NCCCNC(=O)COc2ccc(Cl)cc2)cn1 | 4 | nt | 0.7 | 30%[activator] | 11 | 3%[15.4 µM] | 0%
36 | COc1ccc(OCCN2CCCC2)cc1Nc1nnc(Cl)c(Nc2ccccc2S(C)(=O)=O)n1 | 7 | -1.4% | nt | nt | nt | nt | -4%
38 | O=C(Nc1cccnc1)C1CCCN1S(=O)(=O)c1ccc(Cl)c(Cl)c1 (stereo not drawn) | -2 | -1.0% | 3.8 | 13% | 1 | -23% | 1%
40 | CC(=O)N(C)C[C@H]1Oc2cc(Br)ccc2S(=O)(=O)N([C@H](C)CO)C[C@@H]1C | 1 | 0.4% | nt | nt | nt | -11% | nt

Another view of part of the listing above.
[41] O=C(COC(=O)c1cnccn1)Nc1ccc2c(c1)OCO2
  TRPML1 inh = -11	ClpP mod = -1.8%	Menin-MLL FL inh = 0.9	Sfp inh = 9%	TRPV1 potentiator = nt	gsp agonist = 11%	gsp antag = 1%

[42] COc1cccc(NC(=O)COC(=O)CC2CC3CCC2C3)c1 (stereo not drawn)
  TRPML1 inh = 2	ClpP mod = -3.3%	Menin-MLL FL inh = nt	Sfp inh = nt	TRPV1 potentiator = nt	gsp agonist = -20%	gsp antag = 10%
